TRPML1 inh: human mucolipin-1 channel inhibition; 390,000 tested, 0.02% active; AID 624415; Q9GZU1; activity change, negative = inhibition, % (test concentration not listed); TRPML1-inducible cells, Ca2+ dye fluorescence, FDSS; hits give low values; inhibition of EC80 agonist-evoked calcium signal; in the data active means activity change below about -50%; inconclusive means about -30% to -50%; inactive means above about -30%;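 also: stimulus is agonist 54-4 at its EC80 concentration; % is scaled to controls: 0 for no effect and ±100 for the full control effect; compound concentration not given in the record; the text of the record puts the active cut at -80%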
Target sequence (Q9GZU1 whole entry, looked up): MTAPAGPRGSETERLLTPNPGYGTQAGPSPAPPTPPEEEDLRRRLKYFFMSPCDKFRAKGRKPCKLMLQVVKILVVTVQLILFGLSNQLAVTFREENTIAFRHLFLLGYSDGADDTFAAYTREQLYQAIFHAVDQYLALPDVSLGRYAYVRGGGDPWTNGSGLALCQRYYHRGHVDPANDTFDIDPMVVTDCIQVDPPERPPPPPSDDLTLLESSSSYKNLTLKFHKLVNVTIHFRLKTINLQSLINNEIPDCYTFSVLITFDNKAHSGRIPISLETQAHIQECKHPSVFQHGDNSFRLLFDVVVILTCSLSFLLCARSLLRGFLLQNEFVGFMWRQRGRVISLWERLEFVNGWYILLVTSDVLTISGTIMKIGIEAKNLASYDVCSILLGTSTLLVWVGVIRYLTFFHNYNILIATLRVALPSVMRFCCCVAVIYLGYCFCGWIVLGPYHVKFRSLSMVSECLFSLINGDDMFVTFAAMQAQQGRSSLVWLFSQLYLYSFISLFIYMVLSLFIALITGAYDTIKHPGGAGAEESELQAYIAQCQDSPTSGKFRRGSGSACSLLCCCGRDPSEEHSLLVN
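Tet-induced TRPML1-DL cells loaded with Ca8 no-wash calcium dye were read kinetically on FDSS. Compound addition was followed by EC80 agonist 54-4 (4 uM final); inhibition was read over 110 s.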
CtBP-E1A blk: blocks the CtBP interaction with E1A; 340,000 tested, 0.49% active; activity change, % (no concentration beside the values); AlphaScreen GST-E1A/His-CtBP binding, 1536-well; hits give low values; control for the full effect not named in the record; in the data active means activity change below about -65%; inconclusive means about -30% to -65%; inactive means above about -30%; also: % is scaled to controls: 0 for no effect and ±100 for the full control effect; compound concentration not given in the record
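Protein mix (5X: 125 nM each GST-E1A, His-CtBP) was incubated with pinned compound 2 h at 37 deg C in dark, in 50 mM Tris pH 8.0 buffer with 300 mM NaCl. Glutathione donor and nickel acceptor beads followed; AlphaScreen signal read after 1 h.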
D2 PAM: positive allosteric modulators of human D2 dopamine receptor; DiscoveRx D2 beta-arrestin cells, luminescence, 90 min; 100% = 57 uM dopamine signal; potentiation, % (test concentration not listed); 360,000 tested, 0.23% active; AID 624464; active = potentiation of 50% or more; inconclusive = 30% to 50%; inactive = 30% or less;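 also: compound concentration not given in the record; tested on top of an EC20 dose of dopamine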
Target sequence (P14416 whole entry, looked up): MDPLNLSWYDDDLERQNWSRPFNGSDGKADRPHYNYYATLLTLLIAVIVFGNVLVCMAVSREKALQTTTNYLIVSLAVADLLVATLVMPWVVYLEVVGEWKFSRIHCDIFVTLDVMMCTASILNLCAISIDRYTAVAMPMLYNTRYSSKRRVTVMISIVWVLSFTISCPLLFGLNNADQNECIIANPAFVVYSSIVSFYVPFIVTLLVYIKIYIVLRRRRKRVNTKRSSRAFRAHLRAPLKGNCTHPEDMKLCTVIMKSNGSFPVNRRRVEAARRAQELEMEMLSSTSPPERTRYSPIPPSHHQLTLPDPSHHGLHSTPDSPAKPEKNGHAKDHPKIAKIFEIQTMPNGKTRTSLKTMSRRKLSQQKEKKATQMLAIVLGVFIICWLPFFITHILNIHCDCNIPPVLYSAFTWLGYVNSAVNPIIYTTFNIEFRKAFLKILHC
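PathHunter beta-arrestin assay in DiscoveRx D2 cells. Compounds were added with an EC20 of dopamine (50 nM final) for 90 min at 37 deg C. Luminescence was read 1 h after detection reagent, with 57 uM dopamine as the EC100 control.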
TRPV1 potentiator: potentiators of human vanilloid receptor 1 (TRPV1); Q8NER1; TRPV1-expressing cells, Fluo-8 calcium influx, capsaicin EC20 potentiation; host cell line not named in the record; control for the full effect not named in the record; potentiation, % at 8.33 µM; 320,000 tested, 0.02% active; active means potentiation above 80%; inconclusive means 30% to 80%; inactive means below 30%; also: 0% is about no effect
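Cells expressing TRPV1 were dye-loaded with Fluo-8 and read kinetically: 10 s baseline, 3 min after compound (agonist portion), then 2 min after EC20 capsaicin (allosteric enhancer portion). Calcium-bound dye fluorescence at 480/520 nm.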
TRPML1 ag: agonists of human TRPML1 channel; Q9GZU1; TRPML1-expressing cells, Ca2+ dye fluorescence, FDSS; host cell line not named in the record; reference of the full effect not given here; activation, % (test concentration not listed); 410,000 tested, 0.12% active; AID 624414; in the data active = activation above about 50%; inconclusive = about 30% to 50%; inactive = below about 30%; also: 0% is about no effect; the text of the record puts the active cut at 80%
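Agonist activity was taken from a 110 s kinetic Ca2+ dye read on the FDSS after pinning compounds onto TRPML1-DL cells. The cells were seeded at 1,500/well with Tet inducer, incubated about 16 h, then dye-loaded at room temperature.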
Six1-Eya2 inh: blocks human Six1 binding to Eya2; AlphaScreen GST-Six1/His-Eya2 binding, biochemical; hits give low values; control for the full effect not named in the record; activity change, % (test concentration not listed); 360,000 tested, 0.56% active; Q15475+O00167; in the data active = activity change below about -65%; inconclusive = about -30% to -65%; inactive = above about -30%; also: % is scaled to controls: 0 for no effect and ±100 for the full control effect; compound concentration not given in the record
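AlphaScreen luminescence read after one hour at 37 °C in darkness. Pin-transferred compounds met GST-Six1 and His-Eya2 protein (5X stock 250 nM/500 nM) plus glutathione donor and Ni-chelate acceptor beads (5X, 50 ug/mL).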
The depositor's hits bear a star; u = inconclusive; x = not tested or not shown.

(1) Cc1oc(-c2ccccc2)nc1CSc1nc2c(c(=O)[nH]1)CCC2
(2) Cc1ccccc1NC(=O)Cc1nc(CSc2nnc(-c3ccc4c(c3)OCO4)o2)cs1
(3) O=c1[nH]c(Sc2ccc([N+](=O)[O-])cc2[N+](=O)[O-])nc2ccccc12
(4) CC(C)CCN(CCC(C)C)C(CO)(CO)CO
(5) Nc1cc(-c2ccc(Cl)cc2)nn1S(=O)(=O)c1ccccc1
(6) O=C(Cc1ccc(Br)cc1)OCC(=O)N1CCOCC1
(7) COCCn1c(CN(Cc2ccccc2)Cc2ccccc2)nc2c1c(=O)n(C)c(=O)n2C
(8) COc1cc2nc(CSc3nc(-c4ccc(F)cc4)cs3)[nH]c(=O)c2cc1OC
compound no. | 1 | 2 | 3 | 4 | 5 | 6 | 7 | 8
TRPML1 inh | 3 | 11 | 3 | -6 | 53 | -28 | -5 | -10
CtBP-E1A blk | 2 | 2 | x | -2 | -24 | 8 | -4 | 2
D2 PAM | -2 | -13 | -3 | -11 | -7 | -1 | -4 | 23
TRPV1 potentiator | -8 | -4 | x | 5 | -6 | x | x | 9
TRPML1 ag | 0.7 | 1.1 | 0.4 | 0.7 | 3.2 | 0.2 | 0.4 | 2.5
Six1-Eya2 inh | 0 | -6 | 3 | -3 | 5 | 6 | -7 | -8

(9) O=C(CCCN1C(=O)/C(=C\c2cccs2)SC1=S)Nc1cccnc1
(10) COc1ccc(N2CCN(C(=O)c3ccc(Cn4c(=S)[nH]c5ccc(N6CCOCC6)cc5c4=O)cc3)CC2)cc1
(11) COc1ccc(/C=C2\SC(=S)N(CCC(=O)NC3CCCC3)C2=O)cc1OC
(12) O=c1c2ccccc2nnn1CSc1nc2ccccc2c(=O)n1CCCO
(13) CCn1cc(CNC(=O)C2CCC(=O)N(Cc3ccc(Cl)cc3)C2)cn1 (stereo not given)
(14) COc1ccc(/C=N/NC(=O)COc2ccc(Cl)cc2Cl)cc1Cn1nc(C)cc1C
(15) CCN1C(=O)C(=O)N(CC(=O)N(C)CC(=O)Nc2ccccc2Cl)C1=O
(16) CCN(CC)C(=O)CSc1nc(N)c(C(=O)Nc2ccc(OC)cc2)s1
compound no. | 9 | 10 | 11 | 12 | 13 | 14 | 15 | 16
TRPML1 inh | 4 | 6 | -1 | -15 | -3 | -1 | 4 | -5
CtBP-E1A blk | -1 | -24 | 1 | -5 | -3 | x | -17 | -20
D2 PAM | -4 | -3 | -7 | 11 | -4 | -6 | 3 | -1
TRPV1 potentiator | -17 | 0 | -3 | 5 | 23 | 3 | -4 | -6
TRPML1 ag | 1.7 | -0.1 | 0.3 | -0.4 | 0.3 | 0.2 | 0.7 | 0.5
Six1-Eya2 inh | 6 | u | 6 | -5 | 5 | 14 | 0 | -9

In the list so far, six contain a halogen:
(5) Nc1cc(-c2ccc(Cl)cc2)nn1S(=O)(=O)c1ccccc1
(6) O=C(Cc1ccc(Br)cc1)OCC(=O)N1CCOCC1
(8) COc1cc2nc(CSc3nc(-c4ccc(F)cc4)cs3)[nH]c(=O)c2cc1OC
(13) CCn1cc(CNC(=O)C2CCC(=O)N(Cc3ccc(Cl)cc3)C2)cn1 (stereo not given)
(14) COc1ccc(/C=N/NC(=O)COc2ccc(Cl)cc2Cl)cc1Cn1nc(C)cc1C
(15) CCN1C(=O)C(=O)N(CC(=O)N(C)CC(=O)Nc2ccccc2Cl)C1=O
compound no. | 5 | 6 | 8 | 13 | 14 | 15
TRPML1 inh | 53 | -28 | -10 | -3 | -1 | 4
CtBP-E1A blk | -24 | 8 | 2 | -3 | x | -17
D2 PAM | -7 | -1 | 23 | -4 | -6 | 3
TRPV1 potentiator | -6 | x | 9 | 23 | 3 | -4
TRPML1 ag | 3.2 | 0.2 | 2.5 | 0.3 | 0.2 | 0.7
Six1-Eya2 inh | 5 | 6 | -8 | 5 | 14 | 0

Carrying on:
(17) CCCn1c(CCNC(=O)c2ccco2)nc2ccccc21
(18) Cc1ccc(NC(=O)CNC(=O)c2ccc(OC(F)F)cc2)cc1S(=O)(=O)N1CCCCCC1
(19) O=C1NC(=O)c2cc(NC(=O)C3CCCCC3)ccc21
(20) CCC(C)[C@H](NC(=O)NC1CC1)C(=O)O (stereo not given in full)
(21) O=C(CC(c1ccccc1)c1ccccc1)Nc1ccncc1
(22) COc1cccc(NC(=O)CC2SC(=Nc3ccccc3)NC2=O)c1 (stereo not given)
(23) Cc1cc(C)n(-c2ccc(C(=O)OCC(=O)Nc3ccc(Cl)cc3[N+](=O)[O-])cc2)n1
(24) CCc1cccc(OCC(=O)Nc2ccccc2N2CCCC2)c1
compound no. | 17 | 18 | 19 | 20 | 21 | 22 | 23 | 24
TRPML1 inh | -2 | 10 | 17 | -9 | 14 | -5 | -9 | 32
CtBP-E1A blk | -8 | 2 | 15 | 3 | 0 | 0 | -19 | -3
D2 PAM | -11 | 0 | -26 | -3 | 2 | -31 | -3 | -9
TRPV1 potentiator | -5 | x | 3 | -2 | 13 | 12 | 13 | -4
TRPML1 ag | 1.4 | 0.7 | -0.1 | 0.1 | 1.9 | -1.0 | 0.1 | 1.9
Six1-Eya2 inh | -5 | 0 | -9 | 5 | 1 | -6 | -10 | -10

(continued)
nr | mol | TRPML1 inh | CtBP-E1A blk | D2 PAM | TRPV1 potentiator | TRPML1 ag | Six1-Eya2 inh
25 | CCOc1ccc(CN2CCN(Cc3cc4ccccc4o3)CC2CCO)cc1 (stereo not given) | 3 | -7 | -6 | -19 | 1.8 | -4
26 | CCc1ccc(OCCOCC(O)CN2CCN(Cc3ccc(Cl)cc3)CC2)cc1 (stereo not given) | -16 | -10 | -24 | 4 | -0.5 | -14
27 | COc1cccc(CN2CCNC(=O)C2CC(=O)NCCn2nc(C)cc2C)c1OC (stereo not given) | 12 | 8 | -2 | -6 | 0.2 | -5
28 | Cc1cc(C)n(Cc2n[nH]c(=S)n2Cc2ccccc2)n1 | -2 | 0 | -22 | 15 | -1.0 | 0
29 | O=C(COC(=O)c1cc[n+]([O-])cc1)Nc1c(Cl)cccc1C(F)(F)F | 1 | 7 | 0 | 8 | -0.4 | 7
30 | CCc1cc(-c2n[nH]c(=S)n2-c2ccccc2C)cs1 | -4 | 4 | -14 | 0 | 4.0 | -1
31 | CC(NC(=O)[C@H](Cc1c[nH]c2ccccc12)NC(=O)[C@@H]1Cc2ccccc2CN1)c1ccccc1 (stereo not given in full) | 18 | -4 | -4 | -15 | -0.6 | -9
32 | CC(NC(=O)[C@@H](C)NC(=O)[C@@H]1Cc2ccccc2CN1C(=O)OC(C)(C)C)c1ccccc1 (stereo not given in full) | -3 | x | -2 | -10 | -0.6 | 4
33 | O=[N+]([O-])c1ccc(Sc2cccc3cccnc23)cc1 | 21 | -17 | -1 | 8 | 1.0 | -18
34 | Nc1nnc(CC(=O)N2CCCCC2)s1 | -3 | -2 | 1 | 0 | 0.4 | 2
35 | CN(C)C(=O)c1ccc(N/C=C(\C=O)c2nc3ccccc3o2)cc1 | -5 | -3 | -3 | -7 | -0.3 | -4
36 | COc1ccc(C(=O)OCC(=O)NC2CC2)cc1S(=O)(=O)N1CCOCC1 | 0 | 2 | 0 | 4 | 0.0 | 5
37 | CCN1C(=O)c2cccc3c(S(=O)(=O)NCCc4c[nH]c5ccccc45)ccc1c23 | 21 | -5 | 4 | -16 | -1.0 | -8
38 | COc1ccc(OC)c(CCNC(=O)CSc2ccsc2[N+](=O)[O-])c1 | 7 | -2 | -1 | 5 | -0.7 | -12
39 | CN(C)c1ccc(NC(=O)COC(=O)c2cc(=O)c3ccccc3o2)cc1 | -1 | -9 | 0 | 29 | 0.2 | -6
40 | CC(Sc1nc(C(F)(F)F)nc2ccccc12)C(=O)NC1CCCC1 (stereo not given) | 10 | 4 | -15 | -28 | 1.3 | -2
41 | CC(=O)c1c(C)[nH]c(C(=O)N2CCN(c3ccc(F)cc3)CC2)c1C | 20 | 31 | 2 | -8 | 0.4 | 12
42 | Cc1cccc(C)c1NC(=O)C(NC=O)c1ccccc1 (stereo not given) | -6 | 25 | -8 | 3 | 0.6 | -25
43 | c1ccc2c(Cn3ccnc3)cccc2c1 | -9 | 0 | 1 | 13 | -0.5 | 0
44 | CC(=O)N1CCN(Cc2nc3cc(NC(=O)c4ccccc4C)ccc3n2C)CC1 | -4 | -2 | 7 | 26 | -0.6 | 0

The list continues:
nr | mol | TRPML1 inh | CtBP-E1A blk | D2 PAM | TRPV1 potentiator | TRPML1 ag | Six1-Eya2 inh
45 | O=[N+]([O-])c1cccc2nc3ccccc3c(NCCCn3ccnc3[N+](=O)[O-])c12 | -18 | u | -17 | x | -0.3 | -28
46 | O=C(Nc1cccnc1)NC1CCCCC1 | -3 | 11 | -11 | -14 | 0.6 | -6
47 | CN(C)CCNC(=O)C12CC3(C)CC(C)(CC(C)(C3)C1)C2 | 9 | 4 | -29 | 5 | 1.2 | 3
48 | O=C(C1CC(=O)N(c2ccc3c(c2)OCCO3)C1)N1CCN(c2cccc(C(F)(F)F)c2)CC1 (stereo not given) | 12 | -5 | 4 | 4 | -0.1 | -1
49 | Cc1cccc(C)c1NC(=O)C(=O)NCC1CCCN1S(=O)(=O)c1ccccc1 (stereo not given) | 13 | -2 | -2 | 3 | 0.3 | 5
50 | Cc1ccc(/C=C2/SC(=S)N(CCC(=O)N3CCN(C)CC3)C2=O)cc1 | -1 | -9 | 2 | 5 | -0.9 | 13
51 | CCn1cc([N+](=O)[O-])c(C(=O)NCc2ccc(Cl)cc2)n1 | 12 | x | -11 | -63 | 0.2 | 5
52 | COc1cccc(CN2CCN(Cc3ccc4cccc(F)c4n3)CC2CCO)c1 (stereo not given) | -16 | 20 | -9 | 6 | 0.5 | 7
53 | CC1=Nc2cc(C(=O)NCC3CCCO3)ccc2Sc2ccc(Br)cc21 (stereo not given) | 26 | -5 | -11 | -19 | 0.5 | -8
54 | Cc1cc(C)n2nc(SCc3c(F)cccc3Cl)nc2n1 | 6 | x | -10 | 9 | 1.4 | -13
